Screens from PubChem.
CBX7 AlphaScr – blocks human CBX7 binding to H3K27me3 peptide. O95931. AlphaScreen His6-CBX7 / biotin-H3K27me3 peptide binding; hits give low values. normalised signal (fraction of DMSO) (test concentration not listed). hit rate 1.1% among 66,000. AID 1224903; in the data active = normalised signal below about 0.5;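 note: 100 nL library stock added to about 20 µL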
Target sequence (O95931 whole entry, looked up): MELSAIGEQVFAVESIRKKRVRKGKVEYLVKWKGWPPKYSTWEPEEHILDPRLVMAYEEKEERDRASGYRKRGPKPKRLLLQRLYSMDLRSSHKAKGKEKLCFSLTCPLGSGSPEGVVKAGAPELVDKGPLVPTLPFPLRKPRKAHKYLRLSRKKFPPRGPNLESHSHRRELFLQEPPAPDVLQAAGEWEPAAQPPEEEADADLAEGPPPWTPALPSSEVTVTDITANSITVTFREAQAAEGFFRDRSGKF
CBX7 AlphaScr z-score – further read-out of CBX7 AlphaScr, marked with its call; z-score; measured here: z-score of CBX7 signal; some inactives read as strong as hits; reference of the scale not given here;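 same signal on another scale; lower means less binding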
* marks the source's active call; other numbers are inactive results. These rows are one share of the data; rates above refer to the full screens.

SMILES | CBX7 AlphaScr | CBX7 AlphaScr z-score
CC(C)CCOc1ccc(C(=O)Nc2sc3c(c2C#N)CCCCC3)cc1 | 0.84 | -5.7
CC1CCCC(NC(=O)C2CCCN(S(=O)(=O)c3cccc4cccnc34)C2)C1C (centres undefined) | 0.9 | -0.13
CCn1c(=O)cc(OCC(=O)Nc2nc(C)cs2)c2ccccc21 | 1.2 | 1.7
CCOc1ccc(C(=O)Nc2ccc(S(=O)(=O)Nc3nccnc3OC)cc2)cc1 | 1 | 0.42
COc1ccc(-c2cc(C(F)(F)F)n3ncc(C(=O)N4CCCCC4c4cccnc4)c3n2)cc1OC (centres undefined) | 1 | 0.065
Cc1ccccc1CN1C(=O)c2ccccc2S(=O)c2ccc(C(=O)NCCC(C)C)cc21 (centres undefined) | 0.98 | -0.4
O=C(Nc1ccc2c(c1)OCO2)c1cc2n(n1)C(C(F)(F)F)CC(c1ccc(Cl)c(Cl)c1)N2 (centres undefined) | 1.1 | 0.66
Cc1cc(Nc2ccccc2Br)n2nc(C)nc2n1 | 1.1 | 2
CCc1ccc2oc(-c3ccc(C)c(NC(=O)c4cc5ccccc5o4)c3)nc2c1 | 1.1 | 0.84
Cc1oc(-c2ccccc2F)nc1CSCC(=O)NC1CCCC1 | 1 | 0.45
CCOC(=O)c1cnc2c(C)cc(C)cc2c1Nc1ccc(Cl)cc1C | 1.1 | 1.2
C#Cc1cccc(N2C(=O)c3ccc(C(=O)O)cc3C2=O)c1 | 0.98 | -0.3
CCOc1ccccc1Nc1nc(-c2sc(NC(=O)c3ccccc3)nc2C)cs1 | 1.1 | 2.1
COc1cccc(CN2C(=O)c3ccccc3Sc3ccc(C(=O)NCc4cccnc4)cc32)c1 | 0.76 | -3.7
CC(C)CC(NC(=O)C1CCC(C)CC1)C(=O)NC1CCN(Cc2ccccc2)CC1 (centres undefined) | 1.1 | 2.3
COc1ccc(CCNc2oc(COc3ccc(C)cc3)nc2C#N)cc1OC | 0.48* | -9.4*
C=CCN1C(=O)c2ccccc2Sc2ccc(C(=O)NC)cc21 | 0.99 | -0.24
O=C1CCCc2c1cc(C(=O)Nc1ccccc1F)c(=O)n2-c1ccc(Cl)cc1 | 0.99 | -0.052
Cc1ccc(Oc2cc(C#N)c3ccccc3n2)c(-n2nc3ccccc3n2)c1 | 1.1 | 2.9
O=c1[nH]c2ccc(Cl)cc2c(-c2ccccc2)c1N1CCN(CCO)CC1 | 1.1 | 1.5

12 structures already listed, sorted by heavy-atom count, highest first:
SMILES | CBX7 AlphaScr | CBX7 AlphaScr z-score
COc1ccc(-c2cc(C(F)(F)F)n3ncc(C(=O)N4CCCCC4c4cccnc4)c3n2)cc1OC (centres undefined) | 1 | 0.065
COc1cccc(CN2C(=O)c3ccccc3Sc3ccc(C(=O)NCc4cccnc4)cc32)c1 | 0.76 | -3.7
O=C(Nc1ccc2c(c1)OCO2)c1cc2n(n1)C(C(F)(F)F)CC(c1ccc(Cl)c(Cl)c1)N2 (centres undefined) | 1.1 | 0.66
CC(C)CC(NC(=O)C1CCC(C)CC1)C(=O)NC1CCN(Cc2ccccc2)CC1 (centres undefined) | 1.1 | 2.3
CCOc1ccc(C(=O)Nc2ccc(S(=O)(=O)Nc3nccnc3OC)cc2)cc1 | 1 | 0.42
O=C1CCCc2c1cc(C(=O)Nc1ccccc1F)c(=O)n2-c1ccc(Cl)cc1 | 0.99 | -0.052
O=c1[nH]c2ccc(Cl)cc2c(-c2ccccc2)c1N1CCN(CCO)CC1 | 1.1 | 1.5
CCOC(=O)c1cnc2c(C)cc(C)cc2c1Nc1ccc(Cl)cc1C | 1.1 | 1.2
CCn1c(=O)cc(OCC(=O)Nc2nc(C)cs2)c2ccccc21 | 1.2 | 1.7
C=CCN1C(=O)c2ccccc2Sc2ccc(C(=O)NC)cc21 | 0.99 | -0.24
C#Cc1cccc(N2C(=O)c3ccc(C(=O)O)cc3C2=O)c1 | 0.98 | -0.3
Cc1cc(Nc2ccccc2Br)n2nc(C)nc2n1 | 1.1 | 2

Other records.
SMILES | CBX7 AlphaScr | CBX7 AlphaScr z-score
Cc1ccc(CCNS(=O)(=O)c2c(C)noc2C)cc1 | 1 | 0.14
Cc1nc(NC(=O)c2ccccc2)sc1-c1csc(Nc2ncccn2)n1 | 1 | 0.035
O=c1c2cccnc2n(Cc2cccc(F)c2)c(=O)n1CCc1c[nH]c2ccccc12 | 0.8 | -4.6
COc1ccc(NC(=O)CSc2ccc3nnc(-c4ccccc4)n3n2)cc1OC | 0.86 | -1.7
Cc1ccc(S(=O)(=O)C2(C(=O)N3CCN(c4cccc(C)c4C)CC3)CC2)cc1 | 0.81 | -3.3
CCN(CC)C(C(=O)NC1CCCCC1)c1ccc(C)cc1 (centres undefined) | 1.1 | 1.4
COc1ccc2nc(N3CCCC(C(=O)NCCCN4C(C)CCCC4C)C3)sc2c1 (centres undefined) | 1.4 | 4.2
CC(CCc1ccccc1)NC(=O)C1=CCN(S(=O)(=O)c2ccc(Br)cc2)CC1 (centres undefined) | 1.1 | 3.7
O=C(c1ccc(Cl)c(NC2=NC3CS(=O)(=O)CC3S2)c1)N1CCN(c2ncccn2)CC1 (centres undefined) | 1.2 | 1.7
CCC(C)NC(=O)Cn1ncc2c1-c1cc(C)ccc1OC2 (centres undefined) | 1 | -0.062
Cc1nc2ccc(S(=O)(=O)N(C)CC(=O)N3CCCCCC3)cc2s1 | 1.3 | 1.5
Cc1ccsc1-c1nc(CSCC(=O)NCCN2CCOCC2)c(C)o1 | 1.2 | 2.9
CCOc1ccc(CNC(=O)c2cc(-c3cccs3)nc3ccccc23)cc1 | 0.97 | -0.66
O=C(Cc1ccccc1)Nc1cccc(-c2nc3ccccc3o2)c1 | 1 | 1
O=C(Nc1ccc(OC(F)(F)F)cc1)C1CCCN(S(=O)(=O)c2cccs2)C1 (centres undefined) | 1 | 0.68
CC1CCCN(C(=O)CNC(=O)Cn2ccc3ccccc3c2=O)C1 (centres undefined) | 1 | 0.47
CCOCCCNC(=O)c1cc2sc(Cl)cc2n1CC | 1.1 | 2.2
CCC(=O)Nc1ccc(-c2cn3cccc(C)c3n2)cc1 | 0.98 | -0.69
CC(C)Cn1cc(C(=O)Nc2ccc(F)cc2)c2c3ccccc3n(C)c2c1=O | 0.99 | -0.25
CCOC(=O)c1nc(Nc2ccc(F)cc2)c2ccccc2n1 | 0.99 | -0.12
COc1ccc(CN2C(=O)c3ccccc3C2C(=O)NC2CCCC(C)C2C)c(OC)c1 (centres undefined) | 0.77 | -0.8
C=CCn1c(COc2cccc3cccnc23)nnc1SCC(=O)OC | 0.98 | -0.37
CCC1CCCCN1Cc1c(C)[nH]c2ccccc2c1=O (centres undefined) | 1 | 0.74
CCOc1ccc(C(=O)NCCc2cc3ccc(C)c(C)c3[nH]c2=O)cc1 | 0.98 | -0.12
Nc1ccc(Nc2nc(-c3ccc(Cl)cc3)cs2)cc1 | 0.69 | -3.9
Cc1cc(-c2ccccc2)n2nc(C)c(-c3ccc(Cl)cc3)c2n1 | 1.1 | 2.8
Cc1c(Cl)cccc1N1CC(c2nc3ccccc3n2CCC(C)C)CC1=O (centres undefined) | 0.99 | -0.56
COc1cc(OC)cc(-c2nnc(SCC(=O)N3CCCCC3C)o2)c1 (centres undefined) | 1 | 0.42
O=C(c1ccc2nc(N3CCOCC3)sc2c1)N1CCOCC1 | 1 | 1.1
CCC(=O)N1CCc2cc(S(=O)(=O)N(C)c3ccc(Br)cc3)ccc21 | 1.3 | 2.8
O=C(CCNC(=O)Cn1ccc2ccccc2c1=O)NCCCN1CCN(c2ccc(F)cc2)CC1 | 1 | 1.5
CC(=O)N1CCc2cc(S(=O)(=O)NC(CC(C)C)C(=O)NCc3ccccc3Cl)ccc21 (centres undefined) | 1.1 | 2.9
Cc1ccc(S(=O)(=O)Nc2ccc3oc4c(c3c2)CCC(C)C4)c(C)c1 (centres undefined) | 0.98 | -0.27
CC(C)Cn1cc(C(=O)N2CCC(C(N)=O)CC2)c2c3ccccc3n(C)c2c1=O | 1 | 0.66
NC(=O)C1CCN(C(=O)c2cnn(-c3ccccc3)c2-n2cccc2)CC1 | 1 | 0.4
CC(=O)Nc1ccc2nc(NC(=O)c3ccc(Br)cc3)sc2c1 | 0.91 | -1.2
CCc1cccc(C)c1NS(=O)(=O)c1ccc2c(c1)CCN2C(C)=O | 0.99 | -0.45
COc1ccc(-c2cn(-c3ccc(C)cc3)c(S(=O)(=O)CC(=O)Nc3ccccc3)n2)cc1 | 0.98 | -0.22
CCOC(=O)c1c(CSc2ccccc2)n(C)c2ccc(O)c(CN3CCN(C)CC3)c12 | 0.83 | -6.1
CC1=Nc2cc(C(=O)NC3CCCC3)ccc2Sc2ccc(C)cc21 | 0.98 | -0.75
O=C(O)c1ccc(CNc2c(N3CCOCC3)c(=O)c2=O)cc1 | 0.93 | -1
Cc1ccccc1Nc1c(-c2ccccc2)nc2cccc(C)n12 | 1 | 0.33
O=C(NCCc1ccccc1)c1nnc(Cc2ccc(Cl)cc2)o1 | 1.1 | 2.1
COc1ccc(-c2nc3cc(C)ccn3c2NC(=O)CC(C)C)cc1 | 1 | 0.91
Cc1ccc(SCc2cn3ccccc3n2)cc1 | 0.74 | -1
Cc1nnc(SCC(=O)Nc2nsc(-c3ccccc3)n2)s1 | 0.96 | -1.5
CCC1(C)CC(CCNCc2ccccc2O)(c2ccccc2OC)CCO1 (centres undefined) | 1.2 | 1.8
O=C(CC(Nc1ccc2ccccc2c1)c1ccncc1)c1cccnc1 (centres undefined) | 1.2 | 1.7
Cc1ccc(N2C(=O)C3C4c5ccccc5C(CO)(c5ccccc54)C3C2=O)c(Br)c1 (centres undefined) | 0.94 | -1.6
Cc1ccc(C)c(NC(=O)Cn2nc(C)c3ccccc3c2=O)c1 | 1 | 1.1
CC(=O)N1CCC(N(C(=O)Nc2ccccc2)C2CCC(C)CC2)CC1 (centres undefined) | 1 | 0.042
COc1ccc(Cl)cc1NC(=O)CSc1nc2ccccc2n1-c1ccccc1 | 0.94 | -0.68
COc1cccc(N2C(=O)C(CC(=O)Nc3ccc(F)cc3)N(Cc3ccc(C)cc3)C2=O)c1 (centres undefined) | 0.98 | -0.56
CN(Cc1ccccc1)C(=O)c1ccc2c(c1)NC(=O)c1ccccc1S2 | 0.93 | -1.9
COC(CNC(=O)Cn1c2c(c(-c3ccccc3Cl)cc1=O)CCC2)OC | 0.96 | -0.54
COc1cccc(-c2nn(C)c3sc(C(=O)NC4CCCCC4)cc23)c1 | 0.9 | -1.2
O=C(NCc1ccc(Cl)cc1)c1cc(-c2ccc(F)cc2)nc2ccccc12 | 0.92 | -0.081
COc1ccc(-c2nn(C)c3sc(C(=O)Nc4ccc(C)cc4Br)cc23)cc1OC | 1.1 | 3.4
COc1ccc(NC(=O)CC2C(=O)N(c3ccc(F)cc3)C(=O)N2Cc2ccc(C)cc2)cc1 (centres undefined) | 1 | 1.6
O=C(NCc1ccccn1)C(=O)Nc1ccc2c(c1)OCO2 | 0.99 | -0.15

Next section:
SMILES | CBX7 AlphaScr | CBX7 AlphaScr z-score
COc1ccc(NC(=O)NCCCN2CCCC2=O)cc1 | 1 | 0.048
Cn1nc(-c2ccccc2F)c2cc(C(=O)NCC3(c4ccccc4)CCCC3)sc21 | 0.84 | -0.22
O=C(NC1CCCCCCC1)C1CCN(c2nc3ccccc3o2)CC1 | 0.98 | -0.68
Cc1ccc2nc(-c3ccccc3)cc(C(=O)Nc3ccc(Cl)cc3)c2c1 | 1 | 1.1
Nc1c(C(=O)Nc2cccc3ccccc23)nnn1Cc1ccc(Cl)cc1 | 1.2 | 1.7
CC(C)CNC(=O)c1cc(-c2ccc(F)cc2)on1 | 1 | -0.11
Cc1cccc(OCc2nnc(-c3ccc(Cl)cc3Cl)o2)c1 | 1.6 | 2.1
CCN(CC)C(=O)CS(=O)(=O)Cc1nc(-c2cccc(OC)c2)oc1C | 1.3 | 2.2
Cc1c(C(=O)Nc2ccccc2Cl)sc2ncn(Cc3cccc(F)c3)c(=O)c12 | 1.1 | 0.91
COc1cccc(NC(=O)C2CCN(S(=O)(=O)c3ccccc3)CC2)c1 | 0.9 | -1.9
Cc1ccc2c(c1)-c1c(cnn1CC(=O)N1CCC(Cc3ccccc3)CC1)CO2 | 1 | 0.53
Cc1ccc(Cn2c(-c3nonc3N)nc3ccccc32)cc1 | 0.96 | -0.71
CCn1c(C(=O)N2CCCC(C(=O)NCCCOC)C2)cc2sccc21 (centres undefined) | 0.99 | -0.17
Cc1ccc(S(=O)(=O)N2CCCSCC2)cc1 | 0.97 | -0.48
COC(=O)c1ccc(NC(=O)c2c(NCc3ccc(OC)c(OC)c3)sc3c2CCC(C)C3)cc1 (centres undefined) | 0.7 | -15
Cc1cccc(NC(=O)C(c2ccccc2Cl)N2CCOCC2)c1 (centres undefined) | 0.98 | -0.65
COc1ccc(OC)c(-n2c(CCC(=O)O)ccc2-c2cccs2)c1 | 0.88 | -2.1
CC(C)Oc1ccc(C2CC(=O)N(c3ccc(C(=O)O)cc3)C2=O)cc1 (centres undefined) | 1 | 0.1
Cc1cc(Nc2ccc(Br)cc2)nc2ccccc12 | 1.2 | 7.8
Cc1ccc(CCN2C(=O)Cn3cccc3C2C(=O)NC2CCC(C)CC2)cc1 (centres undefined) | 1 | 0.27
CCC1c2ccc(C)n2CCN1C(=O)Nc1ccccc1Cl (centres undefined) | 0.95 | -2.4
CCCCNC(=O)CN1C(=O)COc2ccc(S(=O)(=O)N3CCCCCC3)cc21 | 1 | 0.42
Cc1ccc(S(=O)(=O)N2CC=C(C(=O)NCc3cccs3)CC2)cc1 | 1.1 | 1.5
Cc1ccc2c(c1)-c1c(cnn1CC(=O)NCCc1ccsc1)CO2 | 1 | 0.14
CCOCCCNC(=O)c1ccc2c(c1)nc(C)n2-c1cccc(Cl)c1 | 0.94 | -0.057
